KCNQ2 pot = KCNQ2 (rat) channel potentiation | CHO-K1 KCNQ2, FluxOR thallium flux fluorescence; hits give high values | 0.54% of 310,000 active | O88943 | AID 2239 | B-score at 10 µM;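 active means fluorescence ratio B-score at least 3 SD of library B-scores, with initial fluorescence B-score within 3 SD, cut at about 5.3 in these data; same plate scores as AID 2156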;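 further: B-score of peak minus minimum over baseline fluorescence ratio after K+ and Tl+ stimulus; positive B-score means potentiation of KCNQ2 with more thallium influx and brighter signal; only the inactives scoring about 0 or higher are listed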
Target sequence (O88943 whole entry, looked up): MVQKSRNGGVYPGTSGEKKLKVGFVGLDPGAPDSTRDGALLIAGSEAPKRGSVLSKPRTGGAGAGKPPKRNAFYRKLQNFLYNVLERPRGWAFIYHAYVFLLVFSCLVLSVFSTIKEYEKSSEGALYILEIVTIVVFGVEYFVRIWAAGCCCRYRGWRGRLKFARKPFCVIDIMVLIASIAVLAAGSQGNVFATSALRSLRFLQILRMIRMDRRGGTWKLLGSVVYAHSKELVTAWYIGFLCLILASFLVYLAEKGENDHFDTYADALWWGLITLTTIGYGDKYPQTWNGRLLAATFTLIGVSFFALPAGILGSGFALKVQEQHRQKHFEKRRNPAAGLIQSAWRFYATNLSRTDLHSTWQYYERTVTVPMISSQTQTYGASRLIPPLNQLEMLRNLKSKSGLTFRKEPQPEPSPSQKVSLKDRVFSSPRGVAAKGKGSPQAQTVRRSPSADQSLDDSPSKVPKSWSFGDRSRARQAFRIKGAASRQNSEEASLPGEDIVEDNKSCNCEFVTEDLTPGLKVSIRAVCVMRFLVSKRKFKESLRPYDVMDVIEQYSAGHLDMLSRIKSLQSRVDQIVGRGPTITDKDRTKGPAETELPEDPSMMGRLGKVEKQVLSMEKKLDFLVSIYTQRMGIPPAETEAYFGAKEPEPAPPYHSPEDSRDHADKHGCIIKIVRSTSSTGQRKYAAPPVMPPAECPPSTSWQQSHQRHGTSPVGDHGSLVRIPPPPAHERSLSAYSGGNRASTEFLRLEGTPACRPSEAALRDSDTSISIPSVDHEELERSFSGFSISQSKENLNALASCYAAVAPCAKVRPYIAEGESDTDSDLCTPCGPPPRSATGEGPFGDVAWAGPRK
KCNQ2 pot baseline = second read-out of KCNQ2 pot, no call of its own (marks repeat the call); B-score; compound at 10 µM; measured here: initial fluorescence intensity artifact check;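 brightness before thallium and not channel activity; 0 = typical well and far values either way flag optical interference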
The depositor's hits bear a star. An excerpt. The share of hits here may be higher or lower than overall.

SMILES	KCNQ2 pot	KCNQ2 pot baseline
CCOc1ccc2[nH]c(=O)c(CN(CCOC)C(=O)N3CCOCC3)cc2c1	0.03	-0.3
COc1ccc(S(=O)(=O)N2CCC(C(=O)N3CCc4ccccc4C3)CC2)cc1C	0.41	1.1
COC(=O)CSc1nc2cc3c(cc2cc1C#N)OCO3	1	-0.1
Cc1cc(NC(=O)c2cc(-c3ccccc3)on2)n(-c2ccccc2)n1	0.19	0.02
NCC12CC3CC(CC(O)(C3)C1)C2	0.39	0.6
Cc1[nH]c(=O)[nH]c(=O)c1S(=O)(=O)Nc1ccc(F)c(Cl)c1	0.1	-0.67
Cc1cc(=O)n2ncnc2n1COCCO	1.3	-1.1
CC(C)(C)NC(=O)C(OC(=O)Cn1nnc(-c2ccc(F)cc2)n1)c1ccncc1 (configuration not stated)	0.53	1.4
O=C(c1cc(Cl)ccc1Cl)N1CCc2ccccc21	0.04	-0.21
O=c1sc2ccccc2n1CCOc1ccccc1	0.04	-0.48
CCC(C)Sc1nc2ccccc2n1CC(=O)O (configuration not stated)	0.94	2.9
CC1CCCCC1NC(=O)c1cc2c(s1)CS(=O)(=O)C2 (configuration not stated)	1	-0.2
COC(=O)c1cccc(Nc2ncnc3sccc23)c1	1.1	1.6
COc1cc(-c2noc(C)c2C(=O)NCCO)cc(OC)c1OC	1.4	0.43
COc1oc(-c2ccccc2)nc1C(F)(F)F	1.2	1.5
COc1ccc(/C=C/C(=O)Nc2ccc(-c3nnc4n3CCCCC4)cc2)c(OC)c1	0.1	-0.53
COC(=O)CCC(=O)OC1(C)C(=O)C=C2C=C(C3CC3)N(C3CCCCC3)C=C2C1=O (configuration not stated)	0.12	0.85
COC(=O)C1=C(SC)N(c2ccc(OC)cc2)C(c2ccccc2)CC1=O (configuration not stated)	3.2	1.8
Cc1ccc(-c2csc(Cc3nc(-c4ccc5c(c4)CCC(=O)N5)cs3)n2)cc1	0.49	-2.2
C/C(=N\NC(=O)c1ccc(F)cc1)c1ccc(NC(=O)Cc2ccccc2)cc1	0.24	1.7
O=C(NCCOc1cccc2cccnc12)c1cccs1	0.65	1.2
C[C@@H]1C=C(C(=O)NC2CC2)O[C@H](OCc2ccc(CO)cc2)C1	0.91	-0.37
Cc1ccc(C(=O)NC(C)c2ccc(C)c(C)c2)s1 (configuration not stated)	12*	1.6*
O=S(=O)(c1ccc(S(=O)(=O)N(Cc2ccccc2)Cc2ccco2)cc1)N1CCCC1	1.1	-0.48
Cc1cc(NC(=O)NC(=O)c2ccccc2F)no1	0.85	1.3

Retrieved one by one from above:
SMILES	KCNQ2 pot	KCNQ2 pot baseline
Cc1cc(NC(=O)NC(=O)c2ccccc2F)no1	0.85	1.3
COc1oc(-c2ccccc2)nc1C(F)(F)F	1.2	1.5
Cc1cc(NC(=O)c2cc(-c3ccccc3)on2)n(-c2ccccc2)n1	0.19	0.02
CC1CCCCC1NC(=O)c1cc2c(s1)CS(=O)(=O)C2 (configuration not stated)	1	-0.2
O=C(c1cc(Cl)ccc1Cl)N1CCc2ccccc21	0.04	-0.21
CCOc1ccc2[nH]c(=O)c(CN(CCOC)C(=O)N3CCOCC3)cc2c1	0.03	-0.3
O=c1sc2ccccc2n1CCOc1ccccc1	0.04	-0.48

Continued:
SMILES	KCNQ2 pot	KCNQ2 pot baseline
CCOC(=O)c1c(NC(=O)c2c(C(=O)O)cccc2[N+](=O)[O-])sc(C)c1C	2	-3
COc1ccccc1Nc1nc(N)nc(CN2CCN(Cc3ccc4c(c3)OCO4)CC2)n1	1.1	1.2
CC(NC(=O)Cc1cccs1)C(c1cccs1)N1CCOCC1 (configuration not stated)	0.08	-0.31
CCn1nnc(NC(=O)COc2ccc(C3CCCCC3)cc2)n1	0.58	-0.77
COc1cc(O)c(CCC(=O)c2cc(OC)c(OC)c(OC)c2)c(OC)c1	1.2	-1
CC(C(=O)OCC(=O)c1ccc([N+](=O)[O-])cc1)N1C(=O)C2C3CCC(C3)C2C1=O (configuration not stated)	1.7	0.01
O=C(Cc1ccc(Br)cc1)NC1CCN(Cc2ccccc2)CC1	1.6	0.34
CS(=O)(=O)N(CC(=O)NC1CCCCC1)Cc1ccc(Cl)cc1	0.2	-1.3
O=C(O)CCCN1C(=O)C(=O)/C(=C(/O)c2ccccc2)C1/C=C/c1ccccc1 (configuration not stated)	0.6	-1.3
COc1ccccc1NC(=O)CN1CCSc2ccccc21	0.35	-0.05
COc1ccccc1Oc1cc(F)nc(N)n1	0.13	-0.22
CC1(C)CC(=O)C=C(Nc2ccc(O)c(C(=O)O)c2)C1	0.9	2.5
O=C(NCc1ccc(Cl)cc1)c1cc(=O)nc2sc(-c3ccccc3)nn12	1.6	0
COc1ccccc1OCCCc1c(C)n[nH]c1C	5.8*	0.78*
CCCc1cc(=O)oc2c(C)c(OCC(=O)Nc3cccnc3)ccc12	0.56	-1
COc1cccc(N2CCN(C3C4CC5CC(C4)CC3C5)CC2)c1 (configuration not stated)	1.2	0.64
CC1CCCC(NC(=O)CCC(=O)NCc2ccccc2)C1C (configuration not stated)	2.5	1.6
CC(C)C(=O)Nc1ccc(NC(=O)c2ccc(COc3ccccc3)cc2)cc1	0.1	0.09
CCc1ccccc1NC(=O)NCCN1CCCCC1	0.35	0.62
CCN1CCN(C(=O)c2ccc(NS(=O)(=O)c3ccccc3)cc2)CC1	0.58	2.7
COc1ccc(NC(=O)C2=CC(c3cccs3)=NS(=O)(=O)N2C)cc1	0.38	0.19
O=C(CSCCc1ccccn1)Nc1ccc(Br)cn1	0.49	-0.33
O=C(O)c1ccccc1C(=O)NNc1ccc(F)cc1	0.21	0.01
CS(=O)(=O)N(CC(=O)N1CCOCC1)c1cc(Cl)ccc1Cl	0.56	-2.1
CCC(/C=N/NC(=O)c1ccccc1F)CC	0.52	-0.38
Cc1cccc(OCC(=O)N=Nc2c(O)[nH]c3ccc([N+](=O)[O-])cc23)c1	0.94	-1.2
CCCCN(CC)Cc1ccc(CNC(=O)Nc2ccc(F)cc2)o1	1.5	0.77
CCOc1ccc(NC(=O)CCC(=O)c2ccc(OC)cc2)cc1	1.1	-0.57
O=C(NCCc1cccc(Cl)c1)c1cccc([N+](=O)[O-])c1	1.6	-1.2
Cc1ccc(NC(=O)C2CC(=O)Nc3ncnn32)cc1Cl (configuration not stated)	0.15	-1.3
CCCCCCOc1ccc(N2C(=O)CC(SCCN)C2=O)cc1 (configuration not stated)	0.07	-0.61
CCS(=O)(=O)Nc1ccc(C2=NN(S(=O)(=O)c3ccc(F)cc3)C(c3ccco3)C2)cc1 (configuration not stated)	0.05	-0.21
CC(=O)c1ccc(NC(=O)c2cc(Cl)sc2Cl)cc1	0.19	0.05
COC(=O)C(CCSC)NC(=O)Cn1ncc2c(=O)oc3ccccc3c21 (configuration not stated)	1.4	0.33
CCCCCCCc1c(O)nc(SCC(=O)O)[nH]c1=O	1.4	-0.62
Cc1ccc(NC(=O)CCC(=O)NNC(=O)NC23CC4CC(CC(C4)C2)C3)cc1C	0.81	0.37
Cc1c(Cl)cccc1-n1nnnc1-c1cccs1	0.54	0.72
COc1ccc2c(COC(=O)CCS(=O)(=O)c3ccc(C)cc3)cc(=O)oc2c1	0.53	-1.6
Cc1ccnc(Nc2nc(-c3ccccc3)cs2)c1	0.52	0.92
Cc1cc(C(=O)c2ccccc2)nc2ccccc12	0.03	0.21
COc1ccc(CCNC(=O)COc2ccc(-c3ccc(C)cc3)cc2)cc1OC	0.12	0.43
CCc1ccccc1NC(=O)Nc1cccs1	2.7	0.21
CC(=O)Nc1cc(NC(C)=O)cc(C(=O)OCC(=O)c2ccc3c(c2)NC(=O)CO3)c1	0.45	0.35
Cc1ccc(C(C)C)cc1OCC(=O)NC1CCCCCCC1	2.1	0.25
OCC[C@H]1C[C@@H](O)[C@H](O)[C@@]2(CCCO2)O1	0.8	0.63
CC(=O)c1cccc(NC(=O)COC(=O)CCc2ccc(S(=O)(=O)N3CCOCC3)cc2)c1	1.7	-2.9
O=C(CCC1CCCC1)Nc1ccccc1-c1ccccc1	23*	0.47*
CCSc1nnc(NC(=O)CSc2nc(C)cc(C)n2)s1	0.27	-0.04
Cc1cc(=O)oc2cc(OC(C)C(=O)N3CCCc4ccccc43)ccc12 (configuration not stated)	0.41	1.1
Cc1ccc(/C=N/NC(=O)Cc2cccs2)o1	0.95	-1.1

Next part:
SMILES	KCNQ2 pot	KCNQ2 pot baseline
c1ccc(Cc2noc(CN3CCCN(C4Cc5ccccc5C4)CC3)n2)cc1	0.37	1.4
Cc1ccc2nc(-c3ccccn3)cc(C(=O)N3CCN(c4ncccn4)CC3)c2c1	0.46	0.09
Cc1ccnc(NC(=O)c2ccc(NC(=O)CC3SC(N4CCCC4)=NC3=O)cc2)c1 (configuration not stated)	1.1	-0.11
CC(C(=O)NC(=O)NC1CCCCC1)N1CCN(c2ccccn2)CC1 (configuration not stated)	0.43	-0.49
O=C(CSc1nc2ccc([N+](=O)[O-])cc2[nH]1)c1ccc2ccccc2c1	0.29	0.16
CC1(C)CC(=O)C=C(NCCc2c[nH]c3ccccc23)C1	1.8	-0.21
COCCCNC(=S)N(CCCO)Cc1cc2cc3c(cc2[nH]c1=O)OCO3	1.1	0.19
CC(=O)Nc1cccc(N/C=C(\C=O)c2nc3ccccc3o2)c1	0.05	0.87
O=C(NC(Cc1ccc2c(c1)OCO2)C(=O)N1CCCC1C(=O)O)c1ccccc1 (configuration not stated)	1.2	-1.1
COc1ccc(C(=O)Nc2ccc(N3CCOCC3)cc2)cc1OC	2	-1.2
Cc1csc(NC(=O)c2ccc(=O)[nH]c2)n1	0.78	-1.3
Cc1c(Cc2ccccc2)c(=O)oc2c(C)c(OCC(=O)N[C@@H](Cc3ccccc3)C(=O)O)ccc12	0.13	0.43
CSc1nc(C)cc(NC(N)=O)n1	0.54	-1.9
O=C(CCNS(=O)(=O)c1ccc(Br)cc1)NCCc1ccccc1	1.2	0.38
CCN(CC)CCCN=Cc1c(O)n(-c2ccc(C)cc2)c(=O)c2ccccc12	0.32	-0.03
C#CCOCCOCCOCCNc1nc(N2CCN(C(=O)[C@H](CCC(=O)O)n3cc(C(N)Cc4ccc(O)cc4)nn3)CC2)nc(N2CCN(C(=O)[C@H](CCC(=O)O)n3cc(C(N)Cc4ccc(O)cc4)nn3)CC2)n1 (some centres not stated)	1.5	-0.55
Cc1ccc(S(=O)(=O)N2CCC3(CC2)OCCO3)c(C)c1	0.69	1.6
CCCN(CCC)CCNC(=O)Cn1cnc2sc(C)c(S(=O)(=O)N3CCOCC3)c2c1=O	2.6	-0.02
O=C(C1CC(=O)N(c2ccc(F)cc2)C1)N1CCOCC1 (configuration not stated)	1.2	-0.07
CCOC(=O)c1cc2ccc3ccccc3c2oc1=O	0.12	0
O=S(=O)(/C=C/c1ccccc1)Oc1ccccc1	0.85	1.9
COc1ccc(OC)c(NC(=O)CN2C(=O)c3ccccc3S2(=O)=O)c1	0.85	0.04
COc1ccc(C(=O)CN2CCN(c3cc(C)nc4ccccc34)CC2)cc1	0.53	-2.5
CC(C)CC(C)NC(=O)c1ccc(C(F)(F)F)cc1 (configuration not stated)	2.2	-1.4
CSCCC(=O)Nc1cc(S(=O)(=O)N2CCOCC2)ccc1N1CCN(C)CC1	0.36	0.42
CCCC12CN3CC(C)(CN(C1)C3c1ccc([N+](=O)[O-])o1)C2=O (configuration not stated)	1.4	-0.6
O=c1c2ccccc2nnn1Cc1nnc(-c2ccccc2Br)o1	0.18	0.39
CCN(C(=O)CSc1nnc(-c2ccncc2)n1-c1ccccc1)C1CCS(=O)(=O)C1 (configuration not stated)	0.55	-0.66
C/C(=N\NC(=O)Nc1ccccc1)c1ccccc1	0.13	0.06
c1ccc2c(c1)[nH]c1c3ccccc3sc21	2.8	-1.8
CN1CCN(S(=O)(=O)c2cccs2)CC1	0.11	0.01
Cc1cc(C)nc(SCCS(=O)(=O)Cc2ccc(Cl)cc2)n1	0.47	-0.26
CCCCS(=O)(=O)C1CCS(=O)(=O)C1 (configuration not stated)	0.06	0.7
Cc1ccccc1C(C(=O)NC1CCCC1)N(C(=O)Cc1cccs1)c1ccc2c(c1)OCCO2 (configuration not stated)	0.82	0.05
Cc1ccc(N(C(=O)c2csnn2)C(C(=O)NC2CCCCC2)c2cccnc2)cc1 (configuration not stated)	1.3	0.9
Cc1ccc(CNC(=O)C2CCCN(S(=O)(=O)c3c(C)noc3C)C2)cc1 (configuration not stated)	0.03	4
O=C1CC(N2CCN(c3ccc(Cl)cc3)CC2)C(=O)N1c1ccccc1 (configuration not stated)	0.93	-1.6
COc1ccc(OC)c(/C=N/NC(=O)c2ccc(=O)[nH]n2)c1	1.1	-1.5
O=C(COc1coc(CN2CCN(c3cccc(Cl)c3)CC2)cc1=O)NC1CCCC1	0.34	-1.3
Cc1ccnc(NC(=O)C2CC(=O)N(c3ccc4c(c3)OCCO4)C2)c1 (configuration not stated)	0.68	2.3

Some of the entries so far, with the structure last.
KCNQ2 pot | KCNQ2 pot baseline | SMILES
0.39 | 0.6 | NCC12CC3CC(CC(O)(C3)C1)C2
0.1 | -0.67 | Cc1[nH]c(=O)[nH]c(=O)c1S(=O)(=O)Nc1ccc(F)c(Cl)c1
1.3 | -1.1 | Cc1cc(=O)n2ncnc2n1COCCO

Bioassay records deposited in PubChem by Johns Hopkins Ion Channel Center.
